High-throughput results deposited in PubChem BioAssay by National Center for Advancing Translational Sciences (NCATS).
TRPML1 blocker: qHTS for Inhibitors of the Human Mucolipin Transient Receptor Potential 1 (TRPML1). 390,000 tested, 0.02% active. TRPML1-inducible cells, Ca2+ dye fluorescence, FDSS; stronger effect = lower value; inhibition of EC80 agonist-evoked calcium signal. Mucolipin-1 (Homo sapiens), Q9GZU1. activity change, negative = inhibition, % (concentration not given with the values); in the data active means activity change below about -50%; inconclusive means about -30% to -50%; inactive means above about -30%;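 also: stimulus is agonist 54-4 at its EC80 concentration; % is scaled to controls: 0 for no effect and ±100 for the full control effect; compound concentration not given in the record; the text of the record puts the active cut at -80%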
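Calcium fluorescence in TRPML1-DL cells induced overnight with Tet: a 110 s read after compound pin addition, then a 110 s antagonist read after challenge with 54-4 at 4 uM final (EC80).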
Six1-Eya2 blk: qHTS Assay for Inhibitors of the Six1/Eya2 Interaction; Homeobox protein SIX1 (Homo sapiens) + Protein phosphatase EYA2 (Homo sapiens), …; AlphaScreen GST-Six1/His-Eya2 binding, biochemical; stronger effect = lower value; control for the full effect not named in the record; activity change, % (no concentration beside the values); 360,000 tested, 0.56% active; in the data active = activity change below about -65%; inconclusive = about -30% to -65%; inactive = above about -30%; also: % is scaled to controls: 0 for no effect and ±100 for the full control effect; compound concentration not given in the record
Target sequence (O00167 whole entry, looked up): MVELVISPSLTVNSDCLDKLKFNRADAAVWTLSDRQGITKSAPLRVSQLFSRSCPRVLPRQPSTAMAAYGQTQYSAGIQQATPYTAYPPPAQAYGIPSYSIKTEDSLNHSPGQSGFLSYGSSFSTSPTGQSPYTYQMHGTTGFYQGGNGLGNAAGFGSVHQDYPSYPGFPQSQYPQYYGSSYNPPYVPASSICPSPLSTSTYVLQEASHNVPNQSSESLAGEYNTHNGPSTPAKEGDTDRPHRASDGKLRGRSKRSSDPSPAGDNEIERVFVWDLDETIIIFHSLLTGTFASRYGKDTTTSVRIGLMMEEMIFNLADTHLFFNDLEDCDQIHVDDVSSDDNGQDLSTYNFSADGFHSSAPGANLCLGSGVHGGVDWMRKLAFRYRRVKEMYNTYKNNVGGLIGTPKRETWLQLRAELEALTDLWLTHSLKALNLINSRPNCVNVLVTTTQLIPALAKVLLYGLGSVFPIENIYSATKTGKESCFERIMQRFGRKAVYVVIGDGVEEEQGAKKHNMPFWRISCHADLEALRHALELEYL
Target sequence (Q15475 whole entry, looked up): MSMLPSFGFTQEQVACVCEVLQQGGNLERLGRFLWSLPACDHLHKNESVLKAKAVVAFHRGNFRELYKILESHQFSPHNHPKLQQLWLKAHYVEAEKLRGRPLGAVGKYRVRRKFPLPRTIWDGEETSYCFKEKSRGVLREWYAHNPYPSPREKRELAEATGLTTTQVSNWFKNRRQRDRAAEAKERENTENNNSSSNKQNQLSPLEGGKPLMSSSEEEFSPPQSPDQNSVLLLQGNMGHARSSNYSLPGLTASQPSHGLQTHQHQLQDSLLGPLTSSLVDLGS
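AlphaScreen with GST-Six1 and His-Eya2 (5X mix: 250 nM and 500 nM), glutathione donor and nickel acceptor beads; buffer 50 mM Tris pH 8.0, 300 mM NaCl, 1 mM TCEP; 1 h at 37 C in the dark.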
TRPV1 potentiator: HTS Assay for Compounds that Act as Potentiators of the Vanilloid Receptor 1; Transient receptor potential cation channel subfamily V member 1 (Homo sapiens), Q8NER1; TRPV1-expressing cells, Fluo-8 calcium influx, capsaicin EC20 potentiation; host cell line not named in the record; control for the full effect not named in the record; potentiation, % at 8.33 µM; 320,000 tested, 0.02% active; AID 540277, 2011; active means potentiation above 80%; inconclusive means 30% to 80%; inactive means below 30%; also: 0% is about no effect
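Fluo-8 calcium influx in TRPV1-expressing cells, kinetic read (ex 480/em 520 nm). Compound added and read 3 min for agonist activity, followed by capsaicin at EC20 final and 2 min further read for enhancement.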
TRPML1 agonist: qHTS for Agonists of the Human Mucolipin Transient Receptor Potential 1 (TRPML1) | TRPML1-expressing cells, Ca2+ dye fluorescence, FDSS; host cell line not named in the record; reference of the full effect not given here | activation, % (test concentration not listed) | 410,000 tested, 0.12% active | AID 624414, 2012; in the data active = activation above about 50%; inconclusive = about 30% to 50%; inactive = below about 30%; also: 0% is about no effect; the text of the record puts the active cut at 80%
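Calcium fluorescence on an FDSS kinetic reader gave the read-out. Tet-induced TRPML1-DL cells were plated overnight, dye-loaded (Ca8 with quencher, 45-90 min, room temperature, dark), then read 110 s after compound addition, and again 110 s after 4uM final 54-4 (EC80).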
CtBP-E1A blk: qHTS Assay for Inhibitors of the CtBP/E1A Interaction | AID 651724, 2012 | 340,000 tested, 0.49% active | activity change, % (test concentration not listed) | CtBP / adenovirus E1A interaction (AlphaScreen) | AlphaScreen GST-E1A/His-CtBP binding, 1536-well; stronger effect = lower value; control for the full effect not named in the record; in the data active means activity change below about -65%; inconclusive means about -30% to -65%; inactive means above about -30%; also: % is scaled to controls: 0 for no effect and ±100 for the full control effect; compound concentration not given in the record
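In 5 uL wells, 23 nL compound meets equimolar GST-E1A and His-CtBP (5X stock 125 nM each) for 2 h, 37 °C. Beads (5X, 50 ug/mL) then 1 h, 37 °C, dark.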
D2 potentiator: Beta-Arrestin HTS for Positive Allosteric Modulators of the Human D2 Dopamine Receptor: Potentiators | D(2) dopamine receptor (Homo sapiens), P14416 | DiscoveRx D2 beta-arrestin cells, luminescence, 90 min; 100% = 57 uM dopamine signal | potentiation, % (test concentration not listed) | 360,000 tested, 0.23% active | AID 624464, 2012; active = potentiation of 50% or more; inconclusive = 30% to 50%; inactive = 30% or less;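 also: compound concentration not given in the record; tested on top of an EC20 dose of dopamine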
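PathHunter beta-arrestin assay in DiscoveRx D2 cells. Compounds were added with an EC20 of dopamine (50 nM final) for 90 min at 37 deg C. Luminescence was read 1 h after detection reagent, with 57 uM dopamine as the EC100 control.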
* = called active by the depositor; u = inconclusive; x = not tested or not shown.

No. | SMILES | TRPML1 blocker | Six1-Eya2 blk | TRPV1 potentiator
1 | Cc1cccc(N(CC(=O)NC2CCCCC2)C(=O)c2csnn2)c1 | -6 | 2 | -2
2 | COc1ccc2sc(-c3ccc(N(C)C)cc3)c(-c3ccc4cc[nH]c4c3)c2c1 | -5 | -20 | x
3 | CCOCCCN(CCC#N)C(=O)C1CCN(S(=O)(=O)c2ccc(-n3cnnn3)cc2)CC1 | -10 | 15 | -1
4 | CCOc1ccc(OCC)c2sc(C)nc12 | -1 | -2 | -7
5 | COc1ccc(OC)c(CN2CCN(C(=O)c3ccc(S(=O)(=O)Nc4ccccc4F)cc3)CC2)c1 | -17 | -2 | -1
6 | CNC(=O)Oc1ccc2c(c1)[C@]1(C)CCN(C)C1N2C (stereo not given in full) | -1 | -5 | 7
7 | Fc1ccc(C2c3cccn3CCN2C(=S)Nc2cccc(F)c2)cc1 (stereo not given) | 1 | -20 | -17
8 | Cc1cccnc1NC(=O)C1CCCN1S(=O)(=O)c1ccc(Cl)cc1 (stereo not given) | -14 | 25 | 0
9 | CCOC(=O)Cn1nc(C)c(NC(=O)c2ccc(Br)o2)c1C | -14 | -3 | 21
10 | CCO[C@H]1OC(C(=O)NC2CC2)=C[C@@H](c2ccc(Br)cc2)[C@@H]1CCCO | 16 | 7 | -1
11 | COC(=O)c1cc2occc2n1CC(=O)N(C)C1CCCCC1 | -6 | -1 | -11
12 | CCN(CC)S(=O)(=O)c1ccc(OC(C)C)nc1 | -7 | 7 | 12
13 | COC(=O)Nc1cc(C)nc2ccccc12 | -7 | 1 | -2
14 | O=C(NC(=S)Nc1nc(-c2cccc3ccccc23)cs1)c1cc2ccccc2o1 | -11 | -12 | 0
15 | COc1ccc(-c2cn[nH]c2-c2ccc(OCC(=O)NN)cc2O)cc1OC | 5 | -6 | -7

No. | TRPML1 agonist | CtBP-E1A blk | D2 potentiator
1 | -1.2 | 1 | -2
2 | -0.9 | -3 | -5
3 | -0.3 | 15 | -8
4 | -0.2 | 3 | -7
5 | 0.1 | -17 | -6
6 | -0.7 | 8 | 2
7 | -0.7 | 4 | -33
8 | -0.3 | -10 | -6
9 | 0.0 | 0 | -1
10 | 1.7 | 1 | 9
11 | -0.4 | 9 | -9
12 | 0.1 | 13 | -7
13 | -0.4 | -1 | -16
14 | -0.5 | 3 | 0
15 | -0.7 | -2 | -5

More structures follow:
No. | SMILES | TRPML1 blocker | Six1-Eya2 blk | TRPV1 potentiator
16 | CNc1snc(C)c1C(=O)OC(C)C(=O)Nc1cccc(C)c1 (stereo not given) | 37 | 2 | x
17 | Cc1cc(C)nc(SCC(=O)Nc2ccc(N3CCOCC3)cc2)n1 | -9 | 5 | 4
18 | CCNS(=O)(=O)c1ccc(NC(=O)Nc2ccc3c(c2)OCO3)cc1 | 34 | -12 | 14
19 | CN(C)CCCNC(=O)N1c2ccccc2Sc2ccccc21 | -1 | -3 | 7
20 | COc1ccccc1OCCn1nnc2ccccc21 | -15 | 10 | 2
21 | O=C(CC1SC(N2CCOCC2)=NC1=O)Nc1ccccc1Cl (stereo not given) | 49 | 6 | 11
22 | COc1ccc(-c2c(C#Cc3ccsc3)c3cc(-c4ccc5cc[nH]c5c4)ccc3n2C)cc1 | 19 | 5 | x
23 | O=C(Oc1ccc(Cl)c2cccnc12)N1CCCCCC1 | -12 | 2 | 9
24 | CC(=NCCc1c(C)[nH]c2ccc(OC(F)(F)F)cc12)C1=C(O)CC(c2ccccc2)CC1=O (stereo not given) | 8 | -5 | -1
25 | CCC(C(=O)N1CCN(S(=O)(=O)c2ccc(F)cc2)CC1)c1ccccc1 (stereo not given) | 2 | 10 | -28
26 | COC(=O)C1=C(Nc2cc(Cl)cc(Cl)c2)CSC1 | 0 | 15 | -6
27 | CCOc1ccc2oc(-c3ccccc3)c(C(=O)N3CCN(C)CC3)c2c1 | 2 | -4 | -17
28 | O=C(O)C1CC=CCC1C(=O)NNc1ccccc1 (stereo not given) | -2 | -1 | -3
29 | Cn1cccc1C(=O)NC(=O)COC(=O)CC12CC3CC(CC(C3)C1)C2 | -4 | -21 | -5
30 | CC(C)(C)NS(=O)(=O)c1ccc(OCC(=O)NCC2CCCO2)cc1 (stereo not given) | -18 | 6 | 28

No. | TRPML1 agonist | CtBP-E1A blk | D2 potentiator
16 | 3.0 | 2 | -5
17 | -0.3 | 6 | -16
18 | 0.6 | -12 | -8
19 | -0.1 | -1 | -23
20 | -0.4 | 5 | 2
21 | 0.7 | 3 | -7
22 | -0.6 | -9 | -8
23 | -0.3 | 2 | -38
24 | -0.2 | 14 | 2
25 | -0.2 | x | -4
26 | 0.3 | 0 | -3
27 | -0.1 | -4 | -12
28 | 0.5 | 0 | -8
29 | -0.4 | -12 | -8
30 | 0.1 | 5 | 2

Reformatted in transposed form: part of the list above.
20) COc1ccccc1OCCn1nnc2ccccc21
21) O=C(CC1SC(N2CCOCC2)=NC1=O)Nc1ccccc1Cl (stereo not given)
assay / entry,20,21
TRPML1 blocker,-15,49
Six1-Eya2 blk,10,6
TRPV1 potentiator,2,11
TRPML1 agonist,-0.4,0.7
CtBP-E1A blk,5,3
D2 potentiator,2,-7

(list continues)
No. | SMILES | TRPML1 blocker | Six1-Eya2 blk | TRPV1 potentiator
31 | O=C(Nc1ccc(Cl)cc1)c1cccc(S(=O)(=O)Nc2ccccn2)c1 | -9 | -9 | -20
32 | Cn1c(Cc2ccccc2)nnc1SCC(=O)NC1CCCCC1 | 0 | 7 | 4
33 | Cc1ccc(NS(=O)(=O)c2ccccc2F)cc1S(=O)(=O)N1CCCCCC1 | 13 | 4 | 0
34 | CN(C)c1ccc(Nc2ccc([N+](=O)[O-])cn2)cc1 | -6 | u | 4
35 | CCOC(=O)C1(C)CCN1C(=O)c1cncc(Br)c1 (stereo not given) | x | -2 | x
36 | O=C(NC12CC3CC(CC(C3)C1)C2)N1CCC(O)(c2ccc3c(c2)OCO3)CC1 | 41 | 6 | -7
37 | Cc1csc(=O)n1CCC(=O)OCC(=O)Nc1ccc(C(N)=O)cc1 | 1 | -4 | u
38 | CCOCC(=O)Nc1ccc([N+](=O)[O-])cc1OC | 24 | 0 | 2
39 | CCn1c(/N=C/c2c[nH]c3ccccc23)nc2ccccc21 | -3 | -12 | -14
40 | CC(NC(=O)COC(=O)CN1C(=O)NC2(CCCC2)C1=O)c1ccc(F)cc1 (stereo not given) | -10 | -1 | x
41 | Cc1cccc(N2CC(C(=O)Nc3ccc(S(=O)(=O)Nc4nccs4)cc3)CC2=O)c1C (stereo not given) | -7 | -14 | 0
42 | COC(=O)/C(=C/c1ccco1)NC(=O)c1ccc(Br)o1 | 1 | 0 | -7
43 | COc1ccc(CC(=O)NCc2ccc(-n3cccc3)cc2)cc1OC | 5 | -11 | -24
44 | FC(F)(F)c1cccc(CN2CCC(c3cc(-c4cccs4)n[nH]3)CC2)c1 | 9 | -4 | 10
45 | COc1ccc(/C=C/C(=O)c2ccc([N+](=O)[O-])o2)cc1 | 10 | 2 | -22

No. | TRPML1 agonist | CtBP-E1A blk | D2 potentiator
31 | 1.1 | 1 | -6
32 | -0.6 | 0 | -12
33 | 1.8 | 0 | -6
34 | 0.1 | u | -11
35 | -0.4 | 1 | 1
36 | 0.2 | -2 | -8
37 | -0.1 | 8 | -1
38 | 1.5 | -1 | 5
39 | 2.3 | -11 | -4
40 | 0.7 | 11 | -18
41 | -0.2 | -15 | -3
42 | -0.9 | 1 | -6
43 | -1.2 | 0 | -6
44 | 1.5 | -6 | -16
45 | 0.5 | 3 | 7

Part of the list above, set out differently.
33	Cc1ccc(NS(=O)(=O)c2ccccc2F)cc1S(=O)(=O)N1CCCCCC1
34	CN(C)c1ccc(Nc2ccc([N+](=O)[O-])cn2)cc1
35	CCOC(=O)C1(C)CCN1C(=O)c1cncc(Br)c1 (stereo not given)
36	O=C(NC12CC3CC(CC(C3)C1)C2)N1CCC(O)(c2ccc3c(c2)OCO3)CC1
37	Cc1csc(=O)n1CCC(=O)OCC(=O)Nc1ccc(C(N)=O)cc1
assay / compound	33	34	35	36	37
TRPML1 blocker	13	-6	x	41	1
Six1-Eya2 blk	4	u	-2	6	-4
TRPV1 potentiator	0	4	x	-7	u
TRPML1 agonist	1.8	0.1	-0.4	0.2	-0.1
CtBP-E1A blk	0	u	1	-2	8
D2 potentiator	-6	-11	1	-8	-1

Next part
No. | SMILES | TRPML1 blocker | Six1-Eya2 blk | TRPV1 potentiator
46 | O=C(COC(=O)Cn1cnc2ccccc21)Nc1ccc(Br)cc1 | 5 | 9 | x
47 | C#CCNC(=O)C1=C[C@@H](C2CCCCC2)C[C@@H](OCc2ccc(CO)cc2)O1 | 0 | -4 | -3
48 | O=C(N/C(=C/C=C/c1ccccc1)C(=O)N1CCOCC1)c1ccccc1Cl | 18 | 11 | 19
49 | CN(C(=O)C1CC1)c1ccccc1 | 35 | 2 | x
50 | CC1(C)CC(=O)c2cc(OCC(=O)NCCN3CCCc4ccccc43)ccc2O1 | -4 | 0 | 5
51 | COc1ccc(-c2cc(C(=O)Nc3cc(S(=O)(=O)N4CCOCC4)ccc3N3CCOCC3)c3ccccc3n2)cc1 | -9 | -6 | 2
52 | O=C(c1ccc(F)cc1)N1CCCC(C(=O)N2CCCCC2)C1 (stereo not given) | -3 | 2 | -22
53 | Cc1cc(C)nc(SC2c3cccc4cccc(c34)C2NS(=O)(=O)c2ccccc2)n1 (stereo not given) | 17 | -4 | 6
54 | CC(=O)N(c1ccc2oc(=O)sc2c1)S(=O)(=O)c1ccc(C(=O)O)cc1 | -6 | 9 | -1
55 | COc1ccc(NC(=O)Cn2c3ccccc3c3nc4n(c(=O)c32)CCS4)cc1 | 10 | 4 | 7
56 | Cn1c(/N=C/c2cc(Cl)ccc2O)nc2ccccc21 | -5 | 2 | 9
57 | O=C(O)c1nn(CCOc2ccccc2F)c(=O)c2ccccc12 | 3 | -5 | -9
58 | CSc1nc(NNC=O)cc(Oc2ccc(NC(C)=O)cc2)n1 | x | 2 | 10
59 | Cc1cc(C(F)(F)F)c2c(N)c(C(=O)NC3CC3)sc2n1 | 4 | 4 | 2

No. | TRPML1 agonist | CtBP-E1A blk | D2 potentiator
46 | -0.1 | -8 | -10
47 | -0.6 | -1 | -1
48 | 0.2 | -9 | -18
49 | -0.3 | 4 | -5
50 | -0.3 | 2 | -20
51 | 0.1 | 3 | 11
52 | 0.7 | x | -1
53 | 0.6 | -2 | 0
54 | -0.3 | -17 | -4
55 | -1.1 | -4 | -4
56 | 1.3 | -2 | 5
57 | 3.3 | -11 | -4
58 | x | x | 20
59 | -0.6 | 1 | -10
